Bioassay records: PubChem BioAssay, ICCB-Longwood Screening Facility, Harvard Medical School
Bm FixLJ act = activators of Burkholderia fixLJ two-component system, primary screen, B. multivorans, GFP reporter; hit rate 0.3% among 29,000; B. multivorans fixK-promoter GFP reporter, 18 h; hits give high values; z-score (no concentration beside the values); AID 1918990, 2023;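 active means replicate mean overnight rise in green fluorescent reporter signal, 3 or more SD over negative controls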;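 further: score is relative to vehicle wells of the plate; 300 nL library stock went into each well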
Active calls of the source: *. These rows are one share of the data; count on the stated rates, not on these rows.

SMILES	Bm FixLJ act
COC(=O)c1c(NC(=O)CCCOc2cccc(C)c2)sc2c1CCC(C)C2 (stereo not drawn)	1.2
Cc1ccc(OCCCC(=O)Nc2sc3c(c2C(N)=O)CCC(C)C3)cc1 (stereo not drawn)	0.07
COc1ccc(OC)c(CNC(=O)c2cc(-c3ccc(Cl)s3)nc3ccccc23)c1	-1.2
O=C(NCCN1CCN(c2ccccc2)CC1)Nc1ccccc1Br	-1.1
C#CCSc1nc2sc3c(c2c(=O)n1Cc1ccccc1)CCCC3	-1.8
CCCCN(C)S(=O)(=O)c1ccc(NC2=NS(=O)(=O)c3ccccc32)cc1	0.12
Clc1ccc(-n2c(Cc3ccccc3)nnc2SCc2nc(-c3cccs3)no2)cc1	0.14
Cc1ccc(C)c(NC(=O)C(Cc2ccccc2)n2cccc2)c1 (stereo not drawn)	0.39
CC(Sc1nc(=O)cc(N)n1CCc1ccccc1)C(=O)Nc1cccc(Cl)c1 (stereo not drawn)	-1.8
Cc1cccc(Cn2cc(C(=O)c3ccccc3)c(=O)c3cc4c(cc32)OCO4)c1	-1.2
CCn1c(=O)cc(OCC(=O)N2CCN(c3cccc(Cl)c3)CC2)c2ccccc21	-1.6
Cc1ccc(NC(=O)CCc2c(C)nc3c(-c4ccc(F)cc4)c(C)nn3c2C)cc1F	-0.4
CCOC1CN(Cc2cnc(C3CCCCC3)nc2)CC1O (stereo not drawn)	0.11
CCc1nnc(CN(C)C(=O)c2c(C)c(C)nc3ccc(C)cc23)o1	2
CCCOc1ccc(-c2nonc2NC(=O)c2oc3ccc(C)cc3c2C)cc1OCCC	-1

A few values from the entries so far.
Cc1cccc(Cn2cc(C(=O)c3ccccc3)c(=O)c3cc4c(cc32)OCO4)c1 in Bm FixLJ act → -1.2
CCn1c(=O)cc(OCC(=O)N2CCN(c3cccc(Cl)c3)CC2)c2ccccc21 in Bm FixLJ act → -1.6
CCCOc1ccc(-c2nonc2NC(=O)c2oc3ccc(C)cc3c2C)cc1OCCC in Bm FixLJ act → -1

(further entries)
SMILES	Bm FixLJ act
COc1ccc(S(=O)(=O)N(Cc2nc(-c3ccc(Cl)cc3)no2)C2CCCCC2)cc1	-0.03
COc1ccccc1/C=C/c1nc(C#N)c(NCc2ccccc2)o1	2.4
O=C(NCC1CCCOC1)c1cccc(-c2ccc3c(c2)CCC3=O)c1 (stereo not drawn)	-0.57
NC(=O)C1CCCN(CCCNC(=O)c2onc3c2CCCC3)C1 (stereo not drawn)	0.04
O=C(NCc1ccc2sccc2c1)N1CCCN(C(=O)C2CCCO2)CC1 (stereo not drawn)	-0.28
COc1ccccc1CNc1nc2ccccc2c2nc(-c3cccnc3)nn12	-0.83
Cc1ccc(Cl)cc1N1CCN(C(c2ccc(F)cc2)c2nnc(-c3ccccc3)o2)CC1 (stereo not drawn)	0.13
CC(C)c1ccc2oc(-c3cc(NC(=O)c4cccnc4)ccc3Cl)nc2c1	-1.4
O=C(NCCc1ccccc1)c1ccc2c(c1)N(Cc1ccc(F)cc1Cl)C(=O)CS2	-0.52
CCOc1ccc2c(c1)NC(c1cccs1)=NC(c1ccc(F)cc1)=N2	0.11
CCOC(=O)c1cc2c(=O)n3ccccc3nc2n(CCCOC)c1=NC(=O)C(C)Oc1ccccc1 (stereo not drawn)	-1.1
CC(C)=CCN1C(=O)C2CCC1CN(C(=O)c1c(C)nc3ncccn13)C2 (stereo not drawn)	0.63
Cc1ccc(F)cc1S(=O)(=O)N1CCC(O)C(C(=O)O)C1 (stereo not drawn)	0.43
CCn1c(C(=O)N2CCC(C(=O)NCCc3ccc(OC)cc3OC)CC2)cc2sccc21	-0.29
CCc1noc(-c2cccc(NC(=O)NCCc3noc(C4CC4)n3)c2)n1	-0.43
CCN(CC)CCCNC(=O)N(C)Cc1cnc2ccccc2n1	-1.6
CCOC(=O)c1cc2c(=O)n3ccccc3nc2n(CC2CCCO2)c1=NC(=O)c1cccc(C)c1 (stereo not drawn)	-1.4
O=C(CSc1nc(O)c(C/C=C/c2ccccc2)c(=O)[nH]1)Nc1cccc(F)c1	-1.3
Cn1c(=O)c2sccc2n2c(CCC(=O)N3CCN(c4cccc(Cl)c4)CC3)nnc12	0.42
CCc1ccc(C2c3c(n[nH]c3C)C(=O)N2c2ccc(C)cc2)cc1 (stereo not drawn)	-1.9
CNC(=O)CCc1ccccc1NC(=O)c1c(OC)cccc1OC	0.29
COc1ccc(-c2cc(OC(=O)c3cccc(Cl)c3)c3c(C)oc(C)c3c(=O)c2)cc1OC	0.38
CCOc1ccccc1NC(=O)c1cc(=O)c2ccc(C)cc2o1	-1.1
Cc1cc(N2CCN(c3ccccc3)CC2)n2cnnc2n1	-0.34
COc1cccc(NC(=O)Cn2c(=O)n(Cc3ccc(C(=O)NCc4ccc(C)cc4)cc3)c(=O)c3ccccc32)c1	0.93
O=C1CCCCN1CCC(=O)N(CCCO)Cc1cccc2ccccc12	-0.71
O=C(O)Cn1nc(COc2ccccc2)nc1CC1NC(=O)c2ccccc21 (stereo not drawn)	-3.8
C=Cc1ccc(Cn2c(C)c(CNCCc3ccccc3C)c(C(=O)O)c2C)cc1	-1.1
COc1cccc(NC(=O)c2sc3nc(C)c(C(=O)Nc4ccc(C)cc4C)c(-c4cccs4)c3c2N)c1	-0.46
O=c1c2ccccc2nc(/C=C/c2ccccc2F)n1-c1cccc(O)c1	-0.57

Random excerpt: 6 entries already listed.
SMILES	Bm FixLJ act
O=c1c2ccccc2nc(/C=C/c2ccccc2F)n1-c1cccc(O)c1	-0.57
COc1cccc(NC(=O)c2sc3nc(C)c(C(=O)Nc4ccc(C)cc4C)c(-c4cccs4)c3c2N)c1	-0.46
CCOC(=O)c1cc2c(=O)n3ccccc3nc2n(CC2CCCO2)c1=NC(=O)c1cccc(C)c1 (stereo not drawn)	-1.4
CNC(=O)CCc1ccccc1NC(=O)c1c(OC)cccc1OC	0.29
Cn1c(=O)c2sccc2n2c(CCC(=O)N3CCN(c4cccc(Cl)c4)CC3)nnc12	0.42
O=C(O)Cn1nc(COc2ccccc2)nc1CC1NC(=O)c2ccccc21 (stereo not drawn)	-3.8

Next part:
SMILES	Bm FixLJ act
Cc1ncn(CCNC(=O)N(C)Cc2csc(C(C)C)n2)c1C	-0.23
CCOc1ccc(CC(=O)Nc2c(C(=O)c3ccccc3)oc3ccc(OC)cc23)cc1OCC	-1.1
COc1cccc(Cn2nc(SC)c(S(=O)(=O)c3ccccc3)c2N(C(C)=O)C(C)=O)c1	-0.92
COCC(=O)N1CCCN(C(=O)Nc2cccc3cnccc23)CC1	-3.1
CC(=O)N1CCCC(C(=O)N2CCC(Cc3nc(C)no3)CC2)C1 (stereo not drawn)	-0.86
COc1cccc(-n2c(=O)c3sccc3n(Cc3cc(=O)n4cc(Cl)ccc4n3)c2=O)c1	-0.8
COc1cccc(CN(C)C(=O)NC(C)c2n[nH]c(C)n2)c1 (stereo not drawn)	0.38
CC(C)CSc1oc(-c2ccco2)nc1S(=O)(=O)c1ccc(Br)cc1	0.02
O=C(c1ccccc1Br)N(Cc1ccccc1F)C1CCS(=O)(=O)C1 (stereo not drawn)	0.27
CNc1ncccc1C(=O)N1CCCC2(C1)C(=O)N(C)c1ccccc12 (stereo not drawn)	-1.2
CCn1c(=N)c(C(=O)NC2CCCC2)cc2c(=O)n3ccccc3nc21	-1.7
COc1cccc(-c2nn(C)c3sc(C(=O)NCc4ccc(C)cc4)cc23)c1	-0.21
COc1ccc(NC(=O)CSc2oc(-c3ccco3)nc2S(=O)(=O)c2ccc(Br)cc2)c(OC)c1	-0.51
CCN(Cc1nc(COC)no1)C(=O)NC(c1ncnn1C)C(C)C (stereo not drawn)	-1.2
Cc1n[nH]c(C)c1CCCNC(=O)C1(c2ccccc2)CCN(C)CC1	-0.82

3 structures already listed, ordered by count of non-hydrogen atoms, falling.
SMILES	Bm FixLJ act
Cc1ccc(NC(=O)CCc2c(C)nc3c(-c4ccc(F)cc4)c(C)nn3c2C)cc1F	-0.4
Cc1cccc(Cn2cc(C(=O)c3ccccc3)c(=O)c3cc4c(cc32)OCO4)c1	-1.2
C#CCSc1nc2sc3c(c2c(=O)n1Cc1ccccc1)CCCC3	-1.8

(continued)
SMILES	Bm FixLJ act
CCOC(=O)c1c(Nc2cccc(O)c2)nnc(-c2ccccc2)c1-c1ccccc1	0.75
CC1CCc2c(sc(NC(=O)CCCOc3ccccc3)c2C(N)=O)C1 (stereo not drawn)	-0.97
COc1cccc(NC(=O)C2CCCN(c3nnc(-n4c(C)ccc4C)s3)C2)c1 (stereo not drawn)	0.23
CCn1ccc2cc(C(=O)N3CCC(c4nccn4CC(N)=O)CC3)ccc21	0.3
CN(Cc1cnn(C)c1)C(=O)c1cc2n(n1)CCN(Cc1ccccc1)C2	0.7
CCC(NC(=O)c1cc(C)c(OC)c(C)c1)c1ccc(C)cn1 (stereo not drawn)	-0.1
CCn1c(CNC(=O)C23CC4CC(CC(C4)C2)C3)nnc1SCC(=O)Nc1ccc(OC)cc1	-0.71
CCOc1ccc(CCNC(=O)C2CCN(C(=O)c3cc4sccc4n3CC)CC2)cc1OCC	0.6
CCOC(=O)/C=C(C)/C=C/C=C(C)/C=C/c1c(C)cc(OC)c(C)c1C	-1.4
CCS(=O)(=O)N1CCCC(CNC(=O)c2ccoc2)C1 (stereo not drawn)	-1.3
Cc1cnc(CN2CCCC(c3nnc(CN4CCOCC4)n3C)C2)[nH]1 (stereo not drawn)	-0.86
Cc1cccc(Nc2nc(C)nc(N)c2S(=O)(=O)c2ccccc2)c1	0.22
CCn1c(=O)cc(SCC(=O)NCCc2ccc(OC)cc2OC)c2ccccc21	-1.8
COc1cccc(NC(=O)/C(C#N)=C/c2ccc(-c3ccc(C)cc3)o2)c1	-21
CSc1nn(Cc2ccc(Br)cc2)c(N(C(C)=O)C(C)=O)c1S(=O)(=O)c1ccccc1	0.13
CCN(CC)S(=O)(=O)c1ccc2c(c1)c(=O)c(C(=O)N1CCN(c3ccc(F)cc3)CC1)cn2C	-1.6
Nc1ccc(NC(=O)c2cccc(C(=O)Nc3ccc(N)cc3Cl)c2)c(Cl)c1	1.2
CCOc1ncccc1C(=O)NC1CCN(c2cc(=O)[nH]c(N)n2)CC1	-0.85
Cc1nc2nc(NCc3ccc(Cl)cc3)[nH]n2c(=O)c1Cc1ccccc1	-0.87
COc1cc2nc(NCCc3ccccc3)n3nc(-c4cccnc4)nc3c2cc1OC	-0.66
Cc1cccc(Oc2nc3c(c(=O)n(C)c(=O)n3C)n2C)c1	-0.61
CN(C)C1(CNC(=O)c2ccccc2N2CCOCC2)CCOCC1	-1.1
CSc1ncc(Cl)c(C(=O)Nc2c(C(=O)c3ccc(C)cc3)oc3ccccc23)n1	-2.3
COc1ccc(NC(=O)CN2C(=O)C(=O)c3ccccc32)c(OC)c1	-1.6
CC(=O)N1CCc2c(sc3c2c(=O)n(-c2ccccc2)c(=O)n3CC(=O)c2ccc(Cl)cc2)C1	-2.3
COc1cc(NC(=O)Cn2c(=O)n(Cc3ccco3)c(=O)c3sc4ccccc4c32)cc(OC)c1	0.06
Cc1ncsc1CCN(C)C(=O)c1cccc(S(C)(=O)=O)c1	-0.68
Cc1ccccc1Cn1c(SCc2ccc(C(=O)N3CCCCC3)cc2)nc2ccncc21	-2.1
CCN(CC)CCNC(=O)c1ccc(CSc2nc3ccncc3n2Cc2cccc(F)c2)cc1	-0.22
O=C(CCCCn1c(=O)c2ccccc2n(CC(=O)Nc2ccc(F)cc2F)c1=O)NCCc1ccccc1	-0.89
CC1CCC(NC(=O)c2ccc3c(c2)N(Cc2ccccc2F)C(=O)c2ccccc2S3(=O)=O)CC1 (stereo not drawn)	0.86
O=C(O)c1ccccc1CN1CCCN(C(=O)C2C3C4CCC(C4)C23)CC1 (stereo not drawn)	-0.49
Cc1nc(CCS(=O)(=O)c2ccccc2)n(Cc2ccc(F)cc2)n1	-0.15
CCN(CC)C(C)CN1c2ccccc2Sc2ccccc21 (stereo not drawn)	-1.3
CCOc1ccccc1N(CC)C(=O)c1cc2c(=O)[nH]c3ccc(C)cc3c2s1	-1.3
Cc1ccc(/C=C(\C#N)c2nc(-c3cc4c(ccc5ccccc54)oc3=O)cs2)cc1	0.28
CNC(C)[C@@H]1CC[C@@H](N)[C@@H](OC2[C@@H](N)C[C@@H](N)[C@H](OC3OC[C@](C)(O)[C@H](NC)[C@H]3O)[C@H]2O)O1 (stereo partly drawn)	-0.86
COc1cc2c(cc1OC)C1(CCN(C(=O)Cc3cccnc3)CC1)OCC2	-0.66
Cc1ccc(C(C)C)c(OCCn2cc(C(=O)c3ccco3)c3ccccc32)c1	0.86
Cc1ccc(-c2nnc(Nc3ccccc3)c3ccccc23)cc1S(=O)(=O)N1CCOCC1	0.12
Cc1cc(C)n(-c2cccc(CN(C)C(=O)NCc3cncn3C3CC3)c2)n1	-0.4
CCCN1C(C(=O)c2ccccc2)=C(OC(=O)c2ccc(OC)cc2)c2ccccc2S1(=O)=O	-1.2
COC1=C(OC)C(=O)C(CCCCCCCCCCO)=C(C)C1=O	-1.8
Cc1oc(C)c2c(=O)cc(-c3ccc4c(c3)OCO4)cc(OC(=O)c3ccccc3Cl)c12	-0.3
CSCC(=O)NC(c1cnc2ccccc2c1)C1CC(O)C1 (stereo not drawn)	-1
CC(C)(C)c1ccc(OCC(=O)NC(Cc2c[nH]c3ccccc23)C(=O)O)cc1 (stereo not drawn)	-2.3
Cc1ccc(NC(=O)C(Cc2ccccc2)NS(=O)(=O)c2ccc3c(c2)oc(=O)n3C)c(Cl)c1 (stereo not drawn)	0.47
CCOc1ccc(CCNC(=O)c2cn(CC)c3ccc(S(=O)(=O)N4CCCCCC4)cc3c2=O)cc1OCC	-1
CNC(=O)C(NC(=O)c1cnc(C2CC2)nc1)c1ccccc1 (stereo not drawn)	-0.85
CCOc1ccc(N2CC(c3nc4ccccc4n3Cc3ccccc3F)CC2=O)cc1 (stereo not drawn)	-2.5
Cc1cc2nc(CNC(=O)N3CCN(c4cccnc4)CC3)[nH]c2cc1C	0.55
Cc1cc(C)c(OCCNC(=O)c2cc3n(n2)CC(O)CNC3=O)c(C)c1 (stereo not drawn)	1
